CapD inh – Bacillus anthracis CapD inhibitors, primary screen, biochemical, fluorescence intensity | CapD gamma-glutamyltranspeptidase (Bacillus anthracis Ames Ancestor) | purified CapD enzyme, fluorescence intensity read-out; hits give low values; some hits fall short of the stated cut | z-score (test concentration not listed) | hit rate 0.23% among 140,000;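 active = z-score under -4 in either of two replicates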;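 also: stock transfer was 100 nL into about 40 µL; score is relative to mean and spread of the plate; one replicate is shown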
AID504770 – growth inhibition of E. coli YBA685, primary screen, V. cholerae RctB inhibitors. E. coli YBA685 rctB-dependent plasmid, OD600 growth, 3 h; hits give low values. z-score (no concentration beside the values). hit rate 0.27% among 130,000;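 active = z-score under -2 on both plates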;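 also: wells of about 30 µL received 100 nL stock; score is relative to mean and SD of the test wells; the first replicate is given; strong numbers were not always called active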
* marks the source's active call; other numbers are inactive results; . = not tested or not shown.

mol,CapD inh,AID504770
CCCNC(=O)c1ccc2c(c1)ncn2-c1ccccc1OC,-0.19,-0.4
Cc1noc(C)c1COc1ccc(C(=O)NC2=NCCS2)cc1,.,-0.1
Cc1ccc(CS/C(N)=N/N)cc1,0.665,.
CCN(CC)P(=S)(c1nc2ccccc2n1CC)N(CC)CC,.,-0.15
COC(=O)/C=C/c1ccc2c(c1)OCO2,2.38,-0.5
CCCCCC#CCOC(=O)N1CCN(c2ccccc2C)CC1,0.14,.
CC(=O)NC1CCC(C(=O)O)(c2ccccc2)C1 (stereo not given),-0.3,-0.55
COc1ccc(OC)c(NC(=O)CCNS(=O)(=O)c2ccc3[nH]c(=O)oc3c2)c1,0.265,-0.55

The list goes on:
mol,CapD inh,AID504770
CCn1cc(C(=O)NC2CCCCCC2)c(=O)c2cc(S(=O)(=O)N(C)C)ccc21,-0.955,-0.15
Cc1ccc(C(=O)Sc2sc(=S)sc2SC(=O)c2ccc(C)cc2)cc1,-0.32,.
Cc1ccc(S(=O)(=O)NC2=NCN(C)CN2)cc1,3.37,-0.85
O=C(O)C1Cc2c([nH]c3ccccc23)C(c2ccccc2Br)N1 (stereo not given),0.985,.
COc1ccc(CCNC(=O)CCn2c(SCC(=O)NC3CCCC3)nc3ccccc3c2=O)cc1OC,-0.87,.
N#Cc1c(Cl)cccc1Oc1ccc(S(=O)(=O)NCc2ccccn2)cc1,0.475,.
CCOC(=O)c1cn2c3c(c(F)c(F)cc3c1=O)OCC2C (stereo not given),.,0.3
Cc1cc(-c2ccsc2)n[nH]c1=O,1.29,-0.7

Further entries follow:
mol,CapD inh,AID504770
CCC(Sc1nc2ncccc2o1)C(=O)Nc1ccccc1C(F)(F)F (stereo not given),-1.33,0.05
COc1cccc(N/C(SCc2ccccc2C)=C(/C#N)C(=O)NCCc2ccc(OC)c(OC)c2)c1,-0.105,.
O=C1Cc2cc(C(=O)CSc3ccc4c(c3)OCCCO4)ccc2N1,.,1.65
CC(=O)Nc1ccc2nc3c(cc2c1)[nH]c1ccccc13,79.3,0.8
Cc1cc(NC(=O)COC(=O)COc2ccc3c(c2)CCC3)no1,.,1.35
Nc1nc(-c2ccccc2)nc(-c2ccccc2O)n1,-1.18,0.05
CCC(=O)N(CCC1(c2ccccc2)CCOC(C)(C)C1)Cc1ccc(OC(C)C)cc1 (stereo not given),0.295,.
O=C(COC(=O)c1ccc2c3c1C1C=CCC1CN3CC1CC=CC21)c1ccc([N+](=O)[O-])cc1 (stereo not given),-0.285,.

Next records:
mol,CapD inh,AID504770
CCn1c(=O)/c(=C\c2ccc(Cl)cc2)s/c1=C(/C#N)c1nc2ccccc2n1C,.,0.9
O=C(C1=NOC2(C(=O)c3ccccc3C2=O)C1c1ccccc1)c1ccccc1 (stereo not given),-0.02,-0.5
CC(=O)N1N=C(c2cccs2)CC1c1cn(-c2ccccc2)nc1-c1ccccc1 (stereo not given),30.4,.
CC1SC(/N=C/c2ccc(N(C)C)cc2)=NNC1=O (stereo not given),4.35,1.4
Cc1noc2nc(-c3cccnc3)cc(C(F)(F)F)c12,.,1
Cc1cccc(NC(=O)CCn2c(=O)oc3ccccc32)c1,.,-2.75
CSc1nnc(Cn2c(=O)sc3ccccc32)n1-c1ccccc1C,0.03,-0.6
O=C(O)c1ccc(-n2[nH]c(=S)sc2=S)cc1,.,0.25

The list continues:
mol,CapD inh,AID504770
N#Cc1ccccc1NC(=O)CSc1nc(-c2cccs2)cc(C(F)(F)F)c1C#N,10.1,.
O=C(NC1CCCc2ccccc21)c1ccc(CS(=O)c2ccc(Br)cc2)o1 (stereo not given),-0.34,-1.35
Cc1cc(Oc2ccnc3cc(Cl)ccc23)cc(C)c1Cl,-0.825,.
CCCC(=O)NC1C(OC(C)=O)OC(COC(C)=O)C(OC(C)=O)C1OC(C)=O (stereo not given),-0.31,.
CC(C)(C)C(=O)C1C2CCC1C(O)C2 (stereo not given),0.26,-0.1
COc1c(F)c(F)c(C(=O)O)c(Nc2ccc(C)cc2C)c1F,-0.48,-0.4
CC1CCN(C(=O)C2Cc3ccccc3CN2S(=O)(=O)c2ccc(F)cc2)CC1 (stereo not given),-0.455,-0.3
Cc1cc(C)nc(NS(=O)(=O)c2ccc(NC(=O)c3ccc(S(=O)(=O)N4CCOCC4)cc3)cc2)n1,0.2,.

(more compounds)
mol,CapD inh,AID504770
C=CCn1c(C)cc(C(=O)COC(=O)c2ccc3c(c2)NC(=O)CS3)c1C,.,-1.25
COc1ccc(C2NC3=C(CCC3)C3(C#N)C(OC)(OC)N=C(N)C23C#N)cc1 (stereo not given),1.31,0.85
COC(=O)c1cnc2c(c(C)nn2C)c1OC,-0.175,0.3
Cc1ccc2onc(CNC(=O)N3CCCCCC3)c2c1,0.18,-1.8
COc1cc(NC(=O)c2ccc(N3CC4CC(C3)c3cccc(=O)n3C4)c(NC(=O)c3cccnc3)c2)cc(OC)c1OC (stereo not given),-0.25,.
COc1ccc(C2CC(c3ccc(OC)c(OC)c3)=NN2C(=O)CCC(=O)O)cc1 (stereo not given),40.6,.
CCN(C(=O)Cn1ncc2c(=O)oc3ccccc3c21)c1cc(OC)ccc1OC,-0.32,-0.25
O=C(O)c1cccc2cccc(S(=O)c3ccccc3)c12 (stereo not given),0.33,-0.15

Quoted from the listing.
Result of O=C(O)c1ccc(-n2[nH]c(=S)sc2=S)cc1 under AID504770: 0.25
Result of CCN(CC)P(=S)(c1nc2ccccc2n1CC)N(CC)CC under AID504770: -0.15
Result of COc1ccc(C2NC3=C(CCC3)C3(C#N)C(OC)(OC)N=C(N)C23C#N)cc1 (stereo not given) under AID504770: 0.85

Other structures follow:
mol,CapD inh,AID504770
O=C(O)CSCC(=O)N1CCC(O)(c2ccc(Cl)c(C(F)(F)F)c2)CC1,-0.08,.
C=CCC1N(c2ccccc2)C(=O)C2C(C(=O)O)C3C=CC21O3 (stereo not given),.,-1.3
Cc1ccc(S(=O)(=O)N2CCN(CC(=O)N3CCCC3)CC2)c(C)c1,.,-2.45
COc1ccc(OCc2ncc(C(F)(F)F)cc2Cl)cc1,0.055,-0.35
COc1ccc(COC(=O)C2=C(C)NC3=C(C(=O)CCC3)C2c2ccc(OC(C)=O)c(OC)c2)cc1 (stereo not given),34.3,.
COc1ccc(C2NC(=O)NC(C)=C2C(=O)OC2CCCC(C)C2)cc1Br (stereo not given),0.415,.
O=C(NCCc1cccs1)N1CCN(C2c3ccccc3-c3ccccc32)CC1,-1.05,1.95
CC(C)N(Cc1nc(-c2ccccc2)no1)C(=O)c1ccc2c(c1)OCO2,0.235,-0.75

Other compounds
mol,CapD inh,AID504770
CC(Sc1nc2ccccc2[nH]1)c1nc2ccccc2c(=O)[nH]1 (stereo not given),0.495,-0.3
COC(=O)C1=C(C)NC2=C(C(=O)CCC2)C1c1sccc1C (stereo not given),13.3,-0.35
CCOc1ncccc1C(=O)N1CCN(S(=O)(=O)c2ccc(Br)cc2Cl)CC1,.,1.9
COc1ccc(Nc2nc3nonc3nc2Nc2ccc(OC)cc2)cc1,-0.875,.
COCCOC(=O)C1=C(N)OC2=C(C(=O)CC(C)(C)C2)C1c1ccccc1[N+](=O)[O-] (stereo not given),0.06,.
Cc1ccc(Cn2ccsc2=NC(=O)COC(=O)c2ccc(-n3cnnn3)cc2)cc1,.,-0.45
O=C(c1csc2ccccc12)N1CC=C(c2ccccc2)CC1,0.495,0.15
OCCN1CCN(c2nc(-c3ccccc3)c3cc(Cl)ccc3n2)CC1,0.115,-0.6

Next part:
mol,CapD inh,AID504770
O=C(CCC1COc2ccccc2O1)Nc1ccc(C(=O)N2CCCC2)cc1 (stereo not given),-0.025,0.85
O=C(Nc1ccc(OCc2ccccc2)cc1)Nc1cc(C(F)(F)F)ccc1N1CCCC1,-0.53,-1.75
CCN(c1ccccc1)S(=O)(=O)c1cnc[nH]1,-0.28,-0.75
Cc1cc(NC(=O)c2cccc(S(=O)(=O)N3CCOCC3)c2)no1,0.19,-0.05
CCC(=O)N1CCC(N(CCOC)S(=O)(=O)c2ccc(Cl)cc2)CC1,-0.27,.
O=c1[nH]c2ccccc2c2nc(-c3ccccc3)nn12,0.575,0.9
O=C(O)CNC(=O)/C=C\c1ccccc1,-0.385,0.5
O=C(c1ccc2c(=O)n3c(nc2c1)CCCCC3)N1CCCCC1,-0.525,-0.9

(next part)
mol,CapD inh,AID504770
N#Cc1cnc2cc(-c3cccs3)nn2c1N,2.13,-0.3
CCC(C)C(NC(=O)c1ccccc1NC(=O)c1ccc(OC)cc1)C(=O)N1CCOCC1 (stereo not given),.,0.3
CCOc1ccc(C(=O)Nc2c(C)nc3nc[nH]n3c2=O)cc1OCC,0.39,-0.25
COc1ccc(CCNC(=O)Nc2ccc(Cl)cc2)cc1OC,-0.13,1.3
CC(C)=C1C2C=CC1C1C(=O)N(c3ccc(Br)cc3[N+](=O)[O-])C(=O)C21 (stereo not given),1.43,.
CN1CCN(C(=O)CN2C(=O)S/C(=C\c3ccc(Cl)cc3)C2=O)CC1,-1.36,0.3
CC1=CC(C)(C)NC(=S)N1C(C)c1ccccc1 (stereo not given),0.385,0.2
Cc1ccc(N=C(NOCc2c(C)ccc3ccccc23)c2nonc2N)cc1,-0.705,.

Six records picked at random from the list so far:
mol,CapD inh,AID504770
O=c1[nH]c2ccccc2c2nc(-c3ccccc3)nn12,0.575,0.9
COc1ccc(OCc2ncc(C(F)(F)F)cc2Cl)cc1,0.055,-0.35
O=C(O)CNC(=O)/C=C\c1ccccc1,-0.385,0.5
O=C(O)c1ccc(-n2[nH]c(=S)sc2=S)cc1,.,0.25
COc1ccc(Nc2nc3nonc3nc2Nc2ccc(OC)cc2)cc1,-0.875,.
O=C(O)C1Cc2c([nH]c3ccccc23)C(c2ccccc2Br)N1 (stereo not given),0.985,.

A draw from above in order of number of heavy atoms, smallest number first:
mol,CapD inh,AID504770
N#Cc1cnc2cc(-c3cccs3)nn2c1N,2.13,-0.3
COc1ccc(CCNC(=O)Nc2ccc(Cl)cc2)cc1OC,-0.13,1.3
Cc1ccc(N=C(NOCc2c(C)ccc3ccccc23)c2nonc2N)cc1,-0.705,.

Following part
mol,CapD inh,AID504770
Cc1ccc(NNC(=O)c2cccnc2Oc2ccccc2)cc1,-0.045,-1.3
COC(=O)C1=CN(CC2CCCO2)C=C(C(=O)OC)C1c1ccccc1 (stereo not given),39.9,1.75
CC(=O)Nc1cccc(Oc2nc(C)nc3sc4c(c23)CCCC4)c1,-0.455,1.5
CCOC(=O)C1=C(O)/C(=C\c2cccc(O)c2)SC1=Nc1cccc(Cl)c1,-0.915,.
O=C(OCCCN1C(=O)c2cccc3c(N4CCCCC4)ccc(c23)C1=O)c1ccccc1[N+](=O)[O-],-0.14,.
Cc1nc2ccc(S(=O)(=O)NCC(=O)Nc3nccs3)cc2s1,-0.045,0.6
O=C1c2cccnc2C(=O)N1Cc1ccc(S(=O)(=O)N2CCOc3ccccc3C2)cc1,-0.25,0.55
Cc1ccc(-n2nc3c(N4CCC(C(=O)N5CCCC5)CC4)nnc(C)c3c2C)cc1,6.22,0.45

New compounds follow
mol,CapD inh,AID504770
CCOC(=O)c1c(NC(=O)c2ccc(OC)c(OC)c2)sc(C(=O)Nc2ccc(C)cc2C)c1C,0.495,.
COC(=O)c1c[nH]n2c(NC3CCCCC3)c(-c3cccs3)nc12,-0.235,-0.45
CC1(C)CC(=O)C(C(C2=C(O)CC(C)(C)CC2=O)c2ccc([N+](=O)[O-])o2)C(=O)C1 (stereo not given),-1.47,.
COc1cccc(/C=C2/CCC/C(=C\c3cccc(OC)c3OC)C2=O)c1OC,0.33,-0.6
CCOc1cc(-c2cc(C)c3c(ccc4ccccc43)n2)ccc1O,-0.045,0.05
COc1ccc(-n2cc(C(=O)NC3CCCCCCC3)nn2)cc1,-0.065,-0.25
CCOC(=O)C1=C(C)N=c2s/c(=C\c3cc(Br)c(OC)cc3OC)c(=O)n2C1c1cccs1 (stereo not given),0.26,.
CC(C)N(Cc1ccccc1)C(=O)CN1C(=O)CSc2cc(S(=O)(=O)N3CCCC3)ccc21,-0.64,0.45

More results:
mol,CapD inh,AID504770
NC1=C(C(=O)OCc2ccccc2)C2(C(=O)Nc3ccccc32)C2=C(CCCC2=O)O1 (stereo not given),-0.095,.
O=C(O)c1cc(C(F)(F)F)cc(C(F)(F)F)c1,0.015,.
Cc1ccc(S(=O)(=O)NC2CCSC2=O)cc1 (stereo not given),0.125,0.25
COc1ccc2c(c1)CCCN2C(=O)NC(=O)c1c(F)cccc1Cl,0.445,.
O=C(NC1CCSC1=O)c1cc2cccc3c2n(c1=O)CCC3 (stereo not given),11.2,.
O=C1OC(/C(=C\Nc2cccc(C(F)(F)F)c2)[N+](=O)[O-])c2ccccc21 (stereo not given),-0.705,.
COc1ccc(OC2CCN(S(=O)(=O)c3ccccc3)CC2)cc1,0.07,0.15
Cc1ccc(S(=O)(=O)N2CCNCC2)cc1,.,-0.4

More structures:
mol,CapD inh,AID504770
CC(OC(=O)c1cccc(N(C)C)c1)C(=O)c1ccc(Cl)cc1 (stereo not given),.,-0.05
CC(C(=O)OCC(=O)N1CCCC1)N1C(=O)c2ccccc2C1=O (stereo not given),.,-1.8
O=C(NC(=S)N1CCN(C(=O)c2ccco2)CC1)c1ccc(S(=O)(=O)N2CCOCC2)cc1,.,0.1
Cc1cc(/C=N/NC(=O)c2cccn2C)c(C)n1-c1cccc(C(F)(F)F)c1,1.96,.
COC(=O)c1ccc(NC(=O)C23CCC(C)(C(=O)O2)C3(C)C)cc1 (stereo not given),-0.37,.
COc1cc(C2NC(=O)NC(C)=C2C(=O)OC2CCCCCCC2)cc(Br)c1O (stereo not given),0.395,.
O=c1c(-c2ccccc2)c(O)cc(-c2ccc(F)cc2)n1-c1ccccc1,81.9,1.5

Source: PubChem
